# Screening results from PubChem.
# Biofilm kill mix = mixture kills Candida albicans biofilm cells | hit rate 0.02% among 120,000 | C. albicans biofilm persisters + clotrimazole, fluorescence viability; primary screen in compound mixtures of four per well | inhibition, % at 7.6 µM;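 active = inhibition above 30.3% in the primary screen of four-compound pools, then above 30% when the compound was retested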;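 also: compounds exposed to preformed 24 h biofilms for 48 h; the number belongs to the whole pool; some results filed as inactive read as strong as hits; inactives centre near 12; 0% = biofilm with clotrimazole alone and 100% = kill control; retested singly at about 60 µM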
#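 Incubation: 24 h biofilm formation, then 48 h compound exposure, 37 °C | Material: C. albicans biofilms | Buffer or medium: RPMI/MOPS medium, pH 7.0 | Measured by: 2-h Alamar Blue fluorescence, 535/590 nm excitation/emission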
# * hit, by the source's call. Only part of the results is shown. The share of hits here may be higher or lower than overall.
Structure	Biofilm kill mix
COc1cc(CCC(=O)Nc2ccc(Br)c(C(F)(F)F)c2)cc(OC)c1OC	24.7
NC(=O)[C@@H]1CCCNc2c(F)cc([N+](=O)[O-])cc2C(=O)N[C@@H](CO)C(=O)NCC(=O)N1	16.3
CC(=O)C1C(c2ccc(Br)cc2)C2C(C)=NN=C2CC1(C)O (centres undefined)	14.2
O=C1N(c2cccc(Cl)c2)C(c2ccccc2)N2CCCN12 (centres undefined)	8.4
CSCCC(NC(=O)C1CCC(C)CC1)C(=O)NCCN1CCC(C)CC1 (centres undefined)	-5.0
Cc1cc(C(=O)N/N=C/c2ccc([N+](=O)[O-])cc2)c2ccccc2n1	11.8
Cc1cccc(C)c1NC(=O)CNc1ncnc2sc(C)c(C)c12	14.4
C=CCOC(=O)/C(=C/c1cccnc1)NC(=O)c1ccccc1	39.8
O=C(NC1CCCc2c1cnn2-c1ccc(F)cc1F)c1cnccn1 (centres undefined)	15.3
CC1(C)CC(=O)C2=C(C1)OC(N)=C(C#N)C2c1ccccc1[N+](=O)[O-] (centres undefined)	14.3
Cc1ccc(Cc2cnc(N3C(=N)SC(C)C3=O)s2)cc1 (centres undefined)	21.1
CC(=O)NCCC(=O)Nc1cccc(S(=O)(=O)N(C)c2ccccc2)c1	13.3
CC1(C)CC(=O)c2c(n(S(=O)(=O)c3ccccc3)c3ccc(NS(=O)(=O)c4ccccc4)cc23)C1	11.6
Cc1cc(C)c([N+](=O)[O-])cc1NC(=O)CCSc1ccccc1Cl	7.8
CCOC(=O)C(=O)Nc1ccc([N+](=O)[O-])cc1OC	8.6
NC(=O)c1cccnc1Oc1ccc(Cl)cc1	10.1
Cc1ccc(C)c(C(=O)CN2Cc3ccccc3C2=O)c1	30.8
NC(=S)N/N=C/c1ccccc1O	12.2
Cc1cc(=O)n(CC(=O)O)c2ccccc12	26.1
CNC(=O)c1c(Cl)cnn1-c1ccc(C)cc1	4.2
CC(C)NCC(O)COCCOc1ccc(Cl)cc1 (centres undefined)	29.0
Cc1nn(-c2cccc(Cl)c2)c2nc(-c3ccncc3)cc(C(=O)N3CCOCC3)c12	-0.2
COc1ccc(-n2nc(C(=O)NCC(=O)Nc3cccc(NC(C)=O)c3)c3ccccc3c2=O)cc1	3.8
N#Cc1ccsc1NC(=O)COC(=O)c1cc2ccccc2cc1O	18.6
COCCCNc1nc2nonc2nc1N(C)CC1CCCN1C (centres undefined)	29.8

# At a glance, five of the compounds above:
Structure	Biofilm kill mix
CC(C)NCC(O)COCCOc1ccc(Cl)cc1 (centres undefined)	29.0
Cc1nn(-c2cccc(Cl)c2)c2nc(-c3ccncc3)cc(C(=O)N3CCOCC3)c12	-0.2
COc1ccc(-n2nc(C(=O)NCC(=O)Nc3cccc(NC(C)=O)c3)c3ccccc3c2=O)cc1	3.8
N#Cc1ccsc1NC(=O)COC(=O)c1cc2ccccc2cc1O	18.6
COCCCNc1nc2nonc2nc1N(C)CC1CCCN1C (centres undefined)	29.8

# New compounds follow:
Structure	Biofilm kill mix
COc1ccc(-c2cc(C(=O)N3CCN(c4ccccc4)CC3)c3ccccc3n2)cc1	7.8
Fc1ccc(-c2ccc(/C=N\n3cnnc3)o2)cc1Cl	20.6
COc1cccc(C2C(C#N)=C(N)Oc3c2oc(CO)cc3=O)c1 (centres undefined)	4.0
O=C(CC1c2ccccc2Oc2ccccc21)Nc1ccccc1F	9.6
COc1ccc(NS(=O)(=O)c2cccc(C(=O)N/N=C/c3ccc4c(c3)OCCO4)c2)cc1	-7.5
Cc1ccc(C(=O)NC(=S)Nc2cccc(NC(=O)c3ccccc3Cl)c2)cc1[N+](=O)[O-]	20.4
COc1ccc(/C=C2\CCCC(C(=O)C(F)(F)F)=C2O)cc1OC	8.4
CNc1nc(C)c(C(C)(C)C)s1	26.4
CC(C)NC(=S)NCc1cccnc1	2.9
CCCCNC(=O)CSc1nnc(Cc2ccccc2)n1CC	5.7
CN(C(=O)COC(=O)c1ccc[nH]c1=O)C1CCCCC1	4.6
COc1ccc(-c2c[n+]3c(n2-c2ccccc2)CCCCC3)cc1	-3.6
N#CCc1ccc(NC(=O)/C=C/c2ccc([N+](=O)[O-])o2)cc1	11.9
CCOC(=O)C(=O)Cc1nc2ccccc2s1	12.1
CNCc1cn2cc(Cl)ccc2n1	15.3
C#CCn1ccc(O)c(Cc2c(F)cccc2Cl)c1=O	18.1
CN(C)C(=O)c1cn(-c2ccccc2)nc1-c1cc2ccccc2o1	4.5
Cc1ccc(OCC(=O)Nc2ccccc2N2CCCC2)c(C)c1	0.4
OCC1C2c3ccccc3C(c3ccccc32)C1CO (centres undefined)	19.8
Cc1ccc(N/N=C2\CS(=O)(=O)N(C)c3ccsc32)cc1	8.8
O=C(Cc1ccccc1)Nc1ccccc1N1CCCC1	13.0
COc1cc(/C=C2\S/C(=N/S(=O)(=O)c3ccc(C)cc3)NC2=O)c([N+](=O)[O-])cc1OC	12.9
COc1ccccc1C(=O)Nc1ccc(Cc2ccncc2)cc1	9.4
CC(=O)c1sc(N/N=C\c2ccccc2O)nc1C	20.1
N#CC1=C(N)C(C#N)(C#N)C(c2ccncc2)C2CN(C(=O)OCc3ccccc3)CC=C12 (centres undefined)	13.2

Structure	Biofilm kill mix
COCC(C)n1c(C)cc(C(=O)COC(=O)/C=C/c2cccc(F)c2)c1C (centres undefined)	3.7
COc1ccc(/C=N/n2nnnc2N)cc1OC	16.0
O=C(Cn1cnc2ccccc2c1=O)Nc1ccccc1N1CCOCC1	6.3
CN1C(=O)/C(=C/c2coc3ccc(O)cc3c2=O)SC1=S	15.2
Cc1ccc(NC(=O)c2cc(C)n(-c3cccc(C)c3)c2C)cc1	12.4
CC(C)CC(=O)NC(=S)Nc1ccc(Cl)cn1	9.9
Cc1ccc(N(CC(=O)NCC2CCCO2)C(=O)Cn2nnc(-c3cccs3)n2)cc1 (centres undefined)	12.2
COc1ccc(OC)c(CN2CCCC(C(=O)c3ccccc3SC)C2)c1 (centres undefined)	1.6
CCc1cc2c(=O)n(CCC(C)C)c(=S)[nH]c2s1	8.0
COCCOC(=O)C(CC(=O)O)NCc1ccco1 (centres undefined)	-4.2
CC(CCc1ccccc1)NC(=O)CCN1N=C(c2ccccc2)CCC1=O (centres undefined)	21.9
O=C(Nc1cn(-c2ccccc2)nc1-c1ccc(F)cc1)c1ccccc1	7.4
CCOCCn1c(CN2CCCC(C)C2)nc2c1c(=O)n(C)c(=O)n2C (centres undefined)	9.8
O=C(Cc1cccs1)N/N=C/c1ccccn1	20.4
CC(OC(=O)c1cccs1)C(=O)Nc1nc(-c2ccccc2)cs1 (centres undefined)	3.6
O=C(Cc1ccccc1)Nc1ccc(F)cc1	17.5
COc1cccc(CNC(=O)CC2C(=O)NCCN2Cc2ccoc2)c1OC (centres undefined)	3.5
N#CCC(=O)N/N=C/c1ccc(OCC(=O)Nc2ccc(F)cc2)cc1	5.5
Cc1c(Cc2ccccc2)sc(NC(=O)/C=C/c2cccc3ccccc23)c1C(N)=O	18.6
Cn1c(=O)c2c(SCCN3CCOCC3)nc(C3CCCC3)nc2n(C)c1=O	15.9
Cc1ccc(C(=O)C[n+]2cc(Br)cc(Br)c2)cc1	28.9
Cc1ccc(NC(=O)Nc2ccc3c(c2)nc(C)n3C)cc1C	5.4
S=C(Nc1cccnc1)NC1CCCCCCC1	15.5
CN(CC(=O)OCC(=O)NCc1ccccc1)S(=O)(=O)c1ccc(Cl)cc1	16.3
Cc1cc(C)nc(NC(=S)Nc2ccccc2)n1	14.9

Structure	Biofilm kill mix
Cn1nc(C2CC2)cc1NC(=O)CC(CC(=O)O)c1ccccc1 (centres undefined)	20.0
Cn1[nH]c(C(F)(F)F)c(C=NCc2ccc(Cl)cc2)c1=O	6.5
CC(=O)NCCOc1nc(N2CCCCC2)nc(N2CCCCC2)n1	24.2
Cc1ccc(NC(=O)Nc2ccccc2)c(Br)c1	-2.3
COc1ccc2nc(NC(=O)c3ccccc3-c3ccccc3C(=O)O)sc2c1	18.0
C=CCOC(=O)C(=O)/C=C/c1csc2ccccc12	18.6
O=C(NCc1cccnc1)c1cc(Sc2ccccc2Cl)nc2ccccc12	3.7
O=C(O)COc1ccccc1/C=N/NC(=O)CSc1nnc(SCc2ccc(Cl)cc2)s1	19.2
CC(NC(=O)/C=C/c1ccccc1)c1ccccc1 (centres undefined)	24.3
O=C(Nc1nnc(COc2ccc(Br)cc2)s1)c1ccco1	16.4
CSc1nccc(N2CCN(c3ccc(F)cc3)CC2)n1	8.2
CC(C)(C)c1cc(OS(C)(=O)=O)ccc1O	37.3
Clc1ccc(C2=CSC3=Nc4cccc5cccc(c45)N23)cc1	13.7
O=C(NCCCO)C(=O)NCc1ccccn1	7.4
Cc1cc2nc3n(c2cc1C)CC1CC(C(=O)NCc2cccc(C(F)(F)F)c2)N(C)C31 (centres undefined)	14.3
COc1ccc(-c2nnnn2C(C)C)cc1S(=O)(=O)Nc1ccccc1	10.1
Cc1cc(Cl)ccc1NC(=S)N1CCC(C(N)=O)(N2CCCCC2)CC1	9.2
O=C(Nc1cccc(S(=O)(=O)Nc2ccc(Cl)cc2)c1)c1ccc2c(c1)OCCO2	15.9
Nc1nnc(CC(=O)N/N=C\c2cc([N+](=O)[O-])ccc2O)s1	14.5
O=C(CSc1nc2ncccc2[nH]1)c1ccc2c(c1)OCO2	21.9
CN(C)c1c(-c2ccccc2)cc(-c2ccccc2)[nH]c1=O	20.4
O=[N+]([O-])c1ccc(Sc2ncc3ccccn23)nc1	17.5
CCOc1ccc(-n2c(SCC(=O)c3c(N)n(C)c(=O)n(C)c3=O)nnc2-c2cccnc2)cc1	14.2
CC(C)(C)N1CSC(=S)N(Cc2ccccc2)C1	11.2
O=[N+]([O-])c1ccc(/C=N/N=C/c2ccc([N+](=O)[O-])o2)o1	9.8

Structure	Biofilm kill mix
O=C(CCCN1C(=O)c2ccccc2C1=O)Nc1nc2ccccc2[nH]1	27.3
N#Cc1ccc(/C=C/C(=O)c2ccc3c(c2)OCO3)cc1	12.5
CCCCOC(=O)c1ccc(NC(=O)C(=O)NCCN(C)C)cc1	12.7
CC(=O)Nc1ccc(/C=N/Nc2nc3ccccc3[nH]2)cc1	17.4
O=C(NC1CCCCC1)C(=S)N1CCCC1	10.5
Cc1ccc(C2CC(=O)C(C=NCCN3CCN(CC(=O)Nc4cc(C)cc(C)c4)CC3)=C(O)C2)cc1 (centres undefined)	12.6
CC(C)(C)c1ccc(C2=NC(=O)C(CC(=O)O)S2)cc1 (centres undefined)	15.3
O=C(O)CCc1nn2c3ccccc3n(CCO)c2nc1=O	14.6
CCN1CCN(C(=S)NCc2ccc(C)cc2)CC1	10.4
COc1ccc(CCNC(=O)CSc2ccc(Br)cc2)cc1OC	15.4
Cc1cc(C)nc(Nc2n[nH]c(COc3ccccc3)n2)n1	-2.4
COc1ccc(C2Nc3ccccc3C(=O)N2c2ccccc2)cc1CN1CCOCC1 (centres undefined)	8.9
COc1cccc(/C=N/NC(=O)Cn2nc(C)c([N+](=O)[O-])c2C)c1O	29.7
CC1CCCC(NC(=O)Cc2ccc(Br)cc2)C1C (centres undefined)	11.8
OCC[C@@H]1C[C@@H](O)[C@H](O)[C@]2(CCCCO2)O1	6.4
Cc1ncc(CN2CCC(CO)(CCOc3ccccc3)CC2)s1	25.4
c1ccc(Cn2cc(CSc3ccccc3)nn2)cc1	7.9
COc1ccc(CCn2c(C)nc3ccccc3c2=O)cc1OC	18.6
Cc1ccc(O)c(CNc2ccc(S(=O)(=O)Nc3nccs3)cc2)c1	21.8
O=C(NCC1CCCN(Cc2ccc3nonc3c2)C1)c1ccc(F)cc1 (centres undefined)	-3.6
O=C(CC(=O)Nc1ccc(Cl)c(Cl)c1)N/N=C/c1ccc(O)cc1	1.0
Cc1ccc(SCCC(=O)Nc2ccccc2C(=O)N2CCOCC2)cc1	6.1
COc1ccc(NC(=O)CC2C(=O)NCCN2C(=O)c2ccc(Cl)cc2)cc1 (centres undefined)	20.5
Cc1ccccc1OCCc1c(C)[nH]c(=S)[nH]c1=O	-3.9
CCOc1ccc(NC(=O)CC2C(=O)N(c3ccccc3)C(=O)N2CCc2cccs2)cc1 (centres undefined)	16.4

Structure	Biofilm kill mix
O=C(NCc1ccc2c(c1)OCO2)Nc1cccc2ccccc12	1.9
O=C(Nc1ccc(N2CCOCC2)cc1)C1(c2ccc(Cl)cc2)CCC1	6.8
CCOc1ccc(C2c3[nH]c4ccccc4c3CCN2CCCn2cccn2)cc1 (centres undefined)	12.9
Cc1nc2ccc(S(=O)(=O)Nc3cc(-c4nc5cccnc5s4)ccc3C)cc2s1	12.6
CC(C)CN(C(=O)COC(=O)c1ccccc1Sc1ccccc1C#N)C1CCS(=O)(=O)C1 (centres undefined)	9.2
COc1ccc(/C=N/Nc2cc(C)nc(N3CCOCC3)n2)cc1	17.7
COc1cc(NS(=O)(=O)c2ccc(Nc3nc(-c4cccc([N+](=O)[O-])c4)cs3)cc2)nc(OC)n1	3.1
CC(=O)CSc1nc(N(C)C)nc(N(C)C)n1	13.6
COc1ccc(-c2nnc(SCC(=O)N3CCN(c4ccccc4)CC3)o2)cc1OC	1.3
CCN(CC)C(=O)CSc1nc(-c2cccs2)cc(-c2cccs2)c1C#N	14.4
Cc1ccccc1CNC(=O)Cc1cccs1	15.2
Cc1ccccc1/C=N/Nc1ncnc2nc[nH]c12	24.0
Cc1c(CNC2CCC(C)CC2)c(C(=O)O)c(C)n1Cc1ccccc1 (centres undefined)	8.7
